From PubChem BioAssay
NPYLR7 agonist: activates Aedes aegypti NPYLR7 receptor | HEK293T NPYLR7/Galpha15, GCaMP6s calcium fluorescence | activation, % at 10 µM | 270,000 compounds, 0.15% hits; in the data active = activation above about 40%;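 note: 0% = vehicle and 100% = reference agonist at the receptor; some compounds past the cut are filed as inactive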
NPYLR7 agonist max-min: second read-out of NPYLR7 agonist, no call of its own (marks repeat the call); activation, %; measured here: Max-Min RFU normalised activation; some inactives read as strong as hits;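 span of the calcium signal over five minutes; 0% = vehicle and 100% = native peptide agonist; compound fluorescence can raise it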
* = called active by the depositor; & = joins results of further samples.

no.	compound	NPYLR7 agonist	NPYLR7 agonist max-min
1	CC(=O)N1CCCCC1C1=CCCN(CCOc2ccc(F)cc2)C1 (stereo not drawn)	0	5
2	CCc1nc2ccc(C(=O)NCc3ccc4c(c3)OCO4)cn2c1N(CC)Cc1cccc(Br)c1	19	15
3	CCN(CC)C(=O)CN1CCCN(c2ncnc3sc4c(c23)CCC(C)C4)CC1 (stereo not drawn)	8	5
4	NC(=O)c1ccc(N2CCCC2)c(NC(=O)/C=C/c2ccco2)c1	-2	-4
5	Cc1cc(C(=O)Nc2cccc(NC3CCCC3)c2)nn1C	8	6
6	O=C1/C(=C/c2ccc(Cl)cc2)C=C(c2ccccc2)N1c1cccc(Br)c1	-2	-1
7	COc1cccc(/C=C(\C#N)c2nn(CCO)c(N)c2C#N)c1OC	3	-2
8	Oc1ccc(O)cc1	-9&-3	-21&-25
9	CN1C(=O)CC(C(=O)OCc2cc(Cl)ccn2)C1c1ccccc1 (stereo not drawn)	11	6
10	COc1ccc(-n2nnc(C(=O)OCc3cc(C)ccc3C)c2C)cc1	32	27
11	Fc1ccccc1CN1CCOC(CN2CCOCC2)C1 (stereo not drawn)	-5	-7
12	Cc1ccc(Nc2ncnc3c2nnn3C)cc1	9	3
13	CC(C)=CCCC1=CC[C@H](C(=O)O)[C@H](C(=O)O)C1	2	1
14	CC1CCCCN1C(=O)c1cc2cc([N+](=O)[O-])ccc2s1 (stereo not drawn)	-6	8
15	CCc1cccc(NC(=O)NCC(C)C(=O)OC)c1 (stereo not drawn)	10	6
16	CN(Cc1cnc2ccccc2c1)C(=O)CCCS(N)(=O)=O	0	2
17	COc1ccc(-c2nnc3ccc(SCC(=O)Nc4ccc(C)c(Cl)c4)nn23)cc1OC	14	12
18	COc1ccc(CC2CN(Cc3ccsc3)CCO2)cc1 (stereo not drawn)	14	11
19	COCCNC(=O)C1(C)CCN(Cc2cccc(Oc3ccccc3)c2)C1 (stereo not drawn)	-10	-9
20	CCOc1ccc(-c2nc(COC(=O)c3nnn(-c4ccc(Cl)cc4)c3C)c(C)o2)cc1OC	3	-4
21	COCCn1ccnc1-c1c(-c2ccccc2)ncn1CCC1CCCCN1 (stereo not drawn)	0	-2
22	Cc1cc(C)c2[nH]c(C)c(CC(=O)NCCc3cc(=O)[nH]cn3)c2c1	0	-5
23	CCc1nc2ccc(C(=O)NCCN3CCOCC3)cn2c1N(CC)C(C)=O	-2	-8
24	Cn1c(=O)[nH]c(=O)c2c1nc(Cl)n2CC(N)=O	12	9
25	Cc1ccc(CN(Cc2ccc(F)cc2)C(=O)CN(Cc2ccco2)S(=O)(=O)c2ccccc2)s1	10	20
26	O=C(CCC(=O)N1CCCC1C(F)(F)F)NC1CCCCCCC1 (stereo not drawn)	18	8
27	CC(C)c1csc(C(=O)NC(C)c2cnn(C)c2)n1 (stereo not drawn)	4	3
28	Cc1cn2c3c(=O)n(CCC(C)C)c(=O)n(C)c3nc2n1CCc1ccccc1	-1	0
29	Cn1ccc(NC(=O)C(C)(C)c2ccccc2)n1	4	3
30	c1nc(N2CCCCCC2)c2c3c(sc2n1)CCCC3	-12	-17
31	O=C(COC(=O)c1cc2c(s1)CCC2)NCCN1C(=O)CSC1=O	3	6
32	COc1cccc(C2C(C(=O)c3ccc(C)o3)=C(O)C(=O)N2CCN2CCOCC2)c1OC (stereo not drawn)	1	1
33	O=C(c1cc(=O)c2ccccc2o1)N1CCN(Cc2nnnn2-c2ccc(F)cc2)CC1	-1	-1
34	CCCCCCCn1c(=O)c2c(nc3n2CCN3c2ccccc2)n(C)c1=O	14	7
35	CCOC(=O)C1(Cc2ccccc2F)CCCN(C(=O)c2cc[n+]([O-])cc2)C1 (stereo not drawn)	9	4
36	c1ccc(Cc2nnc3sc(-c4ccccn4)nn23)cc1	5	1
37	Cc1cc(C)cc(-c2nc3cc(C)ccn3c2NC(=O)C2CCCCC2)c1	-4	3
38	O=C(NC1CCCCC1)N1CCn2cccc2C1c1ccccc1 (stereo not drawn)	10	6
39	COc1ccc(NC(=O)CN2CN(c3ccccc3)C3(CCN(C(=O)c4ccc5c(c4)OCO5)CC3)C2=O)cc1	7	13
40	O=C(O)C(Cc1ccccc1)N1C(=O)/C(=C/c2ccc([N+](=O)[O-])cc2)SC1=S (stereo not drawn)	6	5
41	CC1CCCC(OCc2cccc(NC(=O)c3cnn4cccnc34)c2)C1 (stereo not drawn)	2	528
42	CCOC(=O)c1c(NC(=O)Cc2ccc(OC)cc2)sc(C(=O)Nc2ccccc2OC)c1C	-4	1
43	NC(c1c(O)ccc2ccccc12)P(=O)(O)O (stereo not drawn)	6	6
44	CC1CCN(Cc2ccc(C(=O)N3CCOC(C(F)(F)F)C3)o2)CC1 (stereo not drawn)	11	8
45	CCc1nc(NC(=O)C(c2ccccc2)N2CCCC2)sc1C (stereo not drawn)	1&-8	-1&-8
46	CC1CN(c2ccc(Cl)cc2)c2nc3c(c(=O)n(CC(N)=O)c(=O)n3C)n2C1 (stereo not drawn)	-2	-4
47	CCN=c1scc(-c2ccc(F)cc2)n1N=Cc1ccc2c(c1)OCCO2	6	4
48	c1coc(-c2cc(CSc3nnc(-c4cccs4)n3C3CC3)no2)c1	0	1
49	Cc1nc2ccc(Cl)cc2cc1C(=O)N1CSCC1C(=O)NC(C)(C)C (stereo not drawn)	-1	466
50	C#CC1(NC(=O)CCc2scnc2C)CCCCC1	2	2
51	Cc1nn(-c2nc3ccccc3[nH]2)c2c1C(=O)CC(C)C2 (stereo not drawn)	-8	-12
52	Cc1cccc(Cn2c(-c3nnc(C)o3)cc3ccccc32)c1	-4	-5
53	C=C(C)CNC(=O)c1cc(COc2ccc(Cl)cc2OC)on1	-7	-9
54	Cc1ccnc(SCc2cc(=O)c(OC(=O)c3ccc(S(=O)(=O)N(C)C)cc3)co2)n1	-23	-4
55	O=C(Nc1cccc(-c2cccc(Cl)c2)c1)C1CCN(Cc2ccncc2)CC1	11	4
56	CC(C)=NOC(C)C(=O)N(C)CCC(O)c1ccccc1 (stereo not drawn)	0	-4
57	COCCc1nc2ccc(C(=O)N3CCC(OCc4cccnc4)CC3)cc2o1	5	4
58	O=C1C2C=CC(S(=O)(=O)Nc3ccc(O)cc3)=CC2C(=O)C2C([N+](=O)[O-])=CC=C(Cl)C12 (stereo not drawn)	8	5
59	COc1ccc(CNC(=O)c2sc(=O)n(Cc3c(C)noc3C)c2C)cc1	10	5
60	O=C(O)C=Cc1cc(F)cc2c1OCOC2	-5	-2

(cont.)
no.	compound	NPYLR7 agonist	NPYLR7 agonist max-min
61	Cc1cc(N(C)/N=C\c2ccccc2O)nc(-c2ccccc2O)n1	-17	-23
62	C=CCN1C(=O)/C(=C\c2ccccc2OC)SC1=S	4	5
63	Oc1ccc(Cl)cc1C1=NCCN=C(C(F)(F)C(F)F)C1	13	8
64	Cc1cc(N2C(=O)CSC2c2ccccn2)ccc1Br (stereo not drawn)	-2	-8
65	Cc1ccc(-n2ncc3c(-n4nc(C)cc4NC(=O)C(C)Oc4ccccc4)ncnc32)c(C)c1 (stereo not drawn)	16	12
66	Cc1cc(CN2CCN(CCC#N)CC2)c(O)c(C2(C)CCCCC2)c1	8	5
67	CC(NC(=O)CCc1cnn(C)c1)C(O)c1c(F)cccc1Cl (stereo not drawn)	4	2
68	Cc1ccc(N2C(=O)C3C4C=CC(O4)C3C2=O)cc1[N+](=O)[O-] (stereo not drawn)	2	-1
69	O=c1oc2ccc(Cl)cc2cc1-c1csc(Nc2cc(C(F)(F)F)ccc2Cl)n1	-5	-10
70	CCN(CC)Cc1c(O)ccc2occ(C(=O)c3cccs3)c12	3	3
71	CC(C)c1ccc(C2SCC(=O)N2c2ccc(O)cc2)cc1 (stereo not drawn)	-5	-7
72	Cc1ccc2nc(C)n(C3CCN(C(=O)C(C)CC(F)(F)F)CC3)c2c1 (stereo not drawn)	3	-1

Whole records from above:
`Oc1ccc(Cl)cc1C1=NCCN=C(C(F)(F)C(F)F)C1` is listed with NPYLR7 agonist = 13; NPYLR7 agonist max-min = 8
`CC(NC(=O)CCc1cnn(C)c1)C(O)c1c(F)cccc1Cl` (stereo not drawn) is listed with NPYLR7 agonist = 4; NPYLR7 agonist max-min = 2
`Cc1ccc2nc(C)n(C3CCN(C(=O)C(C)CC(F)(F)F)CC3)c2c1` (stereo not drawn) is listed with NPYLR7 agonist = 3; NPYLR7 agonist max-min = -1

Five entries out of the list, arranged by heavy-atom count, descending:
no.	compound	NPYLR7 agonist	NPYLR7 agonist max-min
65	Cc1ccc(-n2ncc3c(-n4nc(C)cc4NC(=O)C(C)Oc4ccccc4)ncnc32)c(C)c1 (stereo not drawn)	16	12
71	CC(C)c1ccc(C2SCC(=O)N2c2ccc(O)cc2)cc1 (stereo not drawn)	-5	-7
63	Oc1ccc(Cl)cc1C1=NCCN=C(C(F)(F)C(F)F)C1	13	8
64	Cc1cc(N2C(=O)CSC2c2ccccn2)ccc1Br (stereo not drawn)	-2	-8
62	C=CCN1C(=O)/C(=C\c2ccccc2OC)SC1=S	4	5

Continuation.
no.	compound	NPYLR7 agonist	NPYLR7 agonist max-min
73	Cc1nc([N+](=O)[O-])cn1CCC(=O)NCC12CC3CC(CC(C3)C1)C2	9	3
74	CCCCSc1nc2c([nH]c3ccccc32)c(=O)n1C	1	13
75	Cn1cnnc1SCC(=O)Nc1c(F)c(F)cc(F)c1F	-3	-7
76	O=C(NCC1=CCCN(CCC2CCCCC2)C1)c1ccccc1	2	-2
77	Cc1cc(C(=O)NCc2ccccc2)c2ccccc2n1	4	-4
78	COc1ccc(C)cc1NC(=O)c1cc2cc3c4c(c2oc1=N)CCCN4CCC3	21	18
79	CS(=O)(=O)/C(C#N)=C/c1cnc2ccc(Br)cn12	1	-2
80	COC(=O)Cc1cc(C2CCN(C(=O)c3cccnc3SC)CC2)n[nH]1	-4	-5
81	COc1cc(F)ccc1-c1ccc(NC2CC2)nn1	13	12
82	CCOC(=O)CCCC(=O)N1CCN(c2cc(S(=O)(=O)N3CCc4cc(OC)c(OC)cc4C3)ccc2OC)CC1	19	7
83	COc1ccc(/C=C/CN2CCC(C(=O)NC(c3ccc(-c4ccccc4)cc3)c3cnccn3)CC2)cc1 (stereo not drawn)	6	9
84	COc1cc(=O)n(-c2ccc(C)cc2)nc1C(=O)N1CCN(c2ccccc2F)CC1	7	3
85	CCCc1nc(Cn2ccc(C)cc2=O)cs1	-11	-12
86	Cc1ccc(Nc2nc(N(C)C)nc3nccnc23)c(C)c1	11	8
87	Cc1ccc(Cc2nsc(N3CCN(C(=O)CC(C)C)C(C)C3)n2)cc1 (stereo not drawn)	-4	1
88	COC(=O)c1ccc(Cn2nc(-c3ccccc3)c3sc(N4CCCC4)nc3c2=O)cc1	-4	-7
89	Cc1nn(CC(=O)N2CCN(c3ccccc3)CC2)c(=O)c2c1cnn2C(C)(C)C	7	3
90	COC(=O)CC1C(=O)NCCN1C(=O)c1cc2cc(C)ccc2nc1C (stereo not drawn)	-5	-10
91	CN(C)C(=O)c1cncc(-c2cc(O)cc(CCC3CCCCN3)c2)n1 (stereo not drawn)	2	0
92	CC1=C(C(=O)Nc2ccccc2C)C(c2ccc(Cl)cc2Cl)NC(=O)N1 (stereo not drawn)	6	6
93	CCCCCc1ccc(C(=O)Nc2ccc(N3CCC(Cc4ccccc4)CC3)c(C(=O)NCCN3CCOCC3)c2)cc1	-5	-1
94	Cc1ccc(C(C)C)cc1S(=O)(=O)N1CCN(c2ccc(-n3nc(C)c(C)c3C)nn2)CC1	-6	-8
95	C#CCN(Cc1ccco1)C(=O)c1cn(Cc2ccc(F)cc2)nn1	0	-7
96	CC(NCCC(=O)Nc1cccnc1)c1ccccc1C(F)(F)F (stereo not drawn)	6	3
97	Cc1nc(CN2CCC(C(=O)NCCC3=CCCCC3)CC2)cs1	2	17
98	OCCC1CN(Cc2nccs2)CCN1Cc1ccccc1F (stereo not drawn)	-4	-4
99	CC(C)Cc1nc(N2CCc3ccccc3C2)c2c3c(sc2n1)CC(C)CC3 (stereo not drawn)	-1	-1
100	c1coc(C2Sc3ccccc3N=C3c4ccccc4CCC32)c1 (stereo not drawn)	3	5
101	CCOc1ccccc1-n1nnc(C(=O)Nc2ccccc2C#N)c1C	-6	-7
102	C=CCn1nnnc1NCc1ccc(OCC)c(OCC)c1	2	0
103	COc1ccc([N+](=O)[O-])cc1CN1CCCn2cccc2C1c1cccc(C(F)(F)F)c1 (stereo not drawn)	24	28
104	Cc1c(C#N)c(NC(=O)CSc2ncn[nH]2)n(-c2ccc(F)cc2)c1C	6	5
105	COc1ccc(C(=O)Nc2ccc(-c3nc4cc(C)ccc4o3)c(O)c2)cc1Cl	-2	-8
106	O=C(CNC(=O)C1CC1)Nc1ccccc1NC(=O)c1ccc(Cl)cc1	11	8
107	OCC1(CCCc2ccccc2)CCN(C2CCC2)CC1	3	12
108	Cc1ccc2nc(CNC(=O)Cn3cnc4ccccc4c3=O)[nH]c2c1	-5	-5
109	CCCC(=O)Nc1ccc(NC(=O)c2cc(C(C)C)[nH]n2)cc1OC	0	0
110	Cc1cc(C)n(CCc2c(-c3ccccc3)ncn2C(C)c2ncn[nH]2)n1 (stereo not drawn)	0	-3
111	COCC(=O)N1CCC(Oc2ccc(C(=O)N(C)CC(O)c3ccccc3)cc2)CC1 (stereo not drawn)	8	7
112	Cc1nc2scc(C)n2c(=O)c1NC(=O)c1ccc(S(=O)(=O)N2CCCC2)cc1	12	3
113	COc1ccc(NC(=O)Cn2cnc3c(cnn3C)c2=O)c(OC)c1	10	13
114	Cc1ccc(/C=C/S(=O)(=O)N(CC(N)=O)CC(C)C)cc1	-4	-2
115	Cc1c(-c2nccn2C2C=CS(=O)(=O)C2)c(=O)n(-c2ccccc2)n1C (stereo not drawn)	11	-4
116	CCOC(=O)C(CC)n1cnc2sc3c(c2c1=O)CCC3 (stereo not drawn)	-3	-7
117	CC(Sc1n[nH]c(-c2ccc(Cl)cc2)n1)C(=O)NC1CCCC1 (stereo not drawn)	7	12

This is a subset; rates above refer to the full screens.
